Cruzain inh noDet: inhibitors of Trypanosoma cruzi cruzain without detergent; purified cruzain, Z-FR-AMC fluorescence, no detergent; Potency, µM, for the others: max response, negative = inhibition, most hits filed as inhibitors; 200,000 tested, 2.3% active; AID 1476; active = well fitted curve in the direction sought with a large enough effect; inconclusive = small, poorly fitted or top-dose-only effect, or another doubt; inactive = no such curve, though single readings can be large; an effect the other way counts as inactive or inconclusive;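 also: plate controls were enzyme without inhibitor for no effect and buffer without enzyme for full effect; nearly all actives have a fitted effect of over 40% in size; top concentration of the series not given in the record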
Target sequence (P25779 123-467 limits assumed): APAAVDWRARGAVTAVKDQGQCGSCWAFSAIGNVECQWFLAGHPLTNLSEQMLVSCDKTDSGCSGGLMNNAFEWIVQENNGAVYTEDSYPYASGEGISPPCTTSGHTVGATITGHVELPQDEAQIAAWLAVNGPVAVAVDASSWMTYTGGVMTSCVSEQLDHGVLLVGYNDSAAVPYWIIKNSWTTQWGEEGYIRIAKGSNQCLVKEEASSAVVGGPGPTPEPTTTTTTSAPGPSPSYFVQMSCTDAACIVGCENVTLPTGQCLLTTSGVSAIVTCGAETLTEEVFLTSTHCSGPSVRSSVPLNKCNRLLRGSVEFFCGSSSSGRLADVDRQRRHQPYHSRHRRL
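Purified cruzain at 1.5 nM, pre-incubated 15 min with compound at room temperature in 100 mM sodium acetate pH 5.5, 5 mM DTT, 0.00005% Triton X-100. Reaction started with 2 uM Z-FR-AMC; AMC fluorescence increase over 60 s gives rate.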
Cruzain inh Det: cruzain (T. cruzi) inhibition with detergent; Potency, µM, without a hit: max response, negative = inhibition, usual class: inhibitors; AID 1478; P25779; 200,000 tested, 0.43% active; purified cruzain, Z-FR-AMC fluorescence, 0.01% Triton; active = well fitted curve in the direction sought with a large enough effect; inconclusive = small, poorly fitted or top-dose-only effect, or another doubt; inactive = no such curve, though single readings can be large; an effect the other way counts as inactive or inconclusive;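 also: plate controls were neutral wells for no effect and buffer without enzyme for full effect; nearly all actives have a fitted effect of over 40% in size; top concentration of the series not given in the record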
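Cysteine protease activity tested under reducing, mildly acidic conditions (100 mM sodium acetate pH 5.5, 5 mM DTT) plus 0.01% Triton X-100. Cruzain 1.5 nM; substrate Z-FR-AMC 2 uM; 15 min compound preincubation at room temperature.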
LASV entry inh: blocks Lassa virus binding to or entry into cells; Lassa virus pseudotype entry inhibition, cell reporter; control for the full effect not named in the record; Potency, µM (series often up to 37.9 µM), inactives show top-dose activity change, negative = inhibition, usual class: inhibitors; 300,000 tested, 1.2% active; AID 540256; active means well fitted inhibition curve with a large enough effect; inconclusive means small, poorly fitted or top-dose-only effect, or effect the other way; inactive means flat fitted curve, though single readings scatter; tested in HEK293 cells; also: % is scaled to controls: 0 for no effect and ±100 for the full control effect; nearly all actives have a fitted effect of over 50% in size; luciferase read-out
RE007 growth inh: less growth of the S. pombe RE007 Vpr strain; 360,000 tested, 0.21% active; S. pombe RE007 Vpr strain, BacTiter-Glo ATP luminescence, 24 h; control for the full effect not named in the record; AID 651644; Potency, µM (highest dose often 92.2 µM), for inactives: at the top dose activity change, negative = less growth; active = well fitted falling curve with a large enough effect; inconclusive = small, poorly fitted or top-dose-only effect; inactive = no such curve, though single readings can be large or run the other way;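 also: % is scaled to controls: 0 for no effect and ±100 for the full control effect; nearly all actives have a fitted effect of over 50% in size; the assay follows cell death caused by Vpr and the record does not say whether a fall means rescue or toxicity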
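Fission yeast RE007 carrying one integrated HIV-1 vpr copy, seeded at OD 0.01 in PMG+AL medium with 23 nL pinned compound. Grown 24 h at 30 degrees; viability read by BacTiter-Glo luminescence after 5 min.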
NS1 function inh: blocks influenza NS1 protein function. S. cerevisiae slowed by influenza A NS1, growth recovery by OD600. Potency, µM (series often up to 46.1 µM), inactives show top-dose activity, positive = more growth. 270,000 tested, 0.4% active; also: actives are rising curves; nearly all actives have a fitted effect of over 50% in size
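A cell-based growth assay was used: compounds that relieve NS1-induced slow growth of budding yeast raise OD600. Assay medium was yeast nitrogen base with ammonium sulphate and -URA supplement, pH 6.0, with 2% galactose.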
MARV entry inh: blocks Marburg virus binding to or entry into cells; Marburg virus pseudotyped entry inhibition, cell reporter; control for the full effect not named in the record; about a third of the inactives were read at about 46 µM; Potency, µM (doses to about 37.8 µM), for inactives: at the highest dose activity change, negative = inhibition, actives largely listed as inhibitors; 300,000 tested, 1.8% active; AID 540276; active = well fitted inhibition curve with a large enough effect; inconclusive = small, poorly fitted or top-dose-only effect, or effect the other way; inactive = flat fitted curve, though single readings scatter; tested in HEK293 cells; about a fifth of its hits are not listed in these tables; also: % is scaled to controls: 0 for no effect and ±100 for the full control effect; luciferase read-out
SARS PLP yeast: SARS-CoV PLP inhibition in yeast. Potency, µM (doses to about 32.9 µM), for the others: at the top dose activity, positive = growth rescue. 330,000 tested, 0.19% active. AID 485353. S. cerevisiae expressing SARS-CoV PLpro, growth rescue; control for the full effect not named in the record; also: 0% is about no effect; nearly all actives have a fitted effect of over 55% in size; growth read by luminescence after 48 h
StopGo reporter: FMDV 2A StopGo reporter, luciferase signal. 410,000 tested, 1.2% active. human cells with a luciferase reporter of 2A StopGo recoding; control for the full effect not named in the record. Potency, µM (doses to about 57.9 µM), for the others: at the highest dose signal change, negative = less light; active = well fitted falling curve with a large enough effect; inconclusive = small, poorly fitted or top-dose-only effect; inactive = no such curve, though single readings can be large or run the other way; tested in HEK293T cells; also: % is scaled to controls: 0 for no effect and ±100 for the full control effect; nearly all actives have a fitted effect of over 45% in size; luciferase light after 4 h
* = called active by the depositor; ? = inconclusive; / = no result given; & = joins results of further samples; [ ] = remark or other dose. Unless noted, calls follow the shape of the dose curve; as a rule, active means well fitted rising curve with a large enough effect; inconclusive means small, poorly fitted or top-dose-only effect; inactive means no such curve, though single readings can be large or run the other way. Potency is read from the fitted curve at half-maximal effect.

SMILES	Cruzain inh noDet	Cruzain inh Det	LASV entry inh	RE007 growth inh	NS1 function inh	MARV entry inh	SARS PLP yeast	StopGo reporter
CCCC(=O)NNC(=O)c1c(O)c2ccccc2[nH]c1=O	/	/	11%	-1%	-5%	-1%[46.1 µM]	3%	4%
COc1ccc(S(=O)(=O)N(CC(=O)NC2CC2)Cc2ccccc2)cc1	/	/	-17%[46.1 µM]	5%	3%	-3%[46.1 µM]	-1%	26%
S=c1[nH]nc(COc2ccccc2)n1/N=C/c1ccc(Br)s1	-5%	-3.9%	?	24%	3%	21%	9%	-10%
O=C(COC(=O)C1CCN(S(=O)(=O)c2cccs2)CC1)c1ccc2c(c1)OCCO2	-5%	0.4%	-1%	-2%	-10%	-2%	3%	-18%
Cc1ccccc1NC(=O)CSc1cn(CC(=O)N2CCCCCC2)c2ccccc12	-16%	-2.2%	-11%[46.1 µM]	/	/	/	/	-5%
Clc1cccc(Cl)c1Cn1cc(Br)cn1	-8%	2.5%	-20%	-2%	17%	3%	-9%	12%
CCN(CC)S(=O)(=O)c1ccc(Cl)c(C(=O)Nc2cc(C)nn2-c2ccccc2C(F)(F)F)c1	4%	-4.9%	/	/	-7%	-1%	-2%	/
O=C(NCCc1cccc(Cl)c1)c1ccc2c(c1)OCO2	/	/	/	-8%	-46%	/	-12%	-27%
CCOC(=O)C(C)S(=O)(=O)c1ccc(C(F)(F)F)cn1 (stereo not given)	2%	-4.1%	0%	-3%	8%	-1%	?	-2%
Cc1cc(S(=O)(=O)N2CCCC(N3CCOCC3)C2)c(C)cc1Cl (stereo not given)	/	/	-4%	-8%	-17%	?	2%	?
Nc1ncn[nH]1	-3%	3.7%	21%	-2%	/	24%	/	-8%&0%
CC(C)=CCc1c(O)cc2oc3c(CC=C(C)C)c(O)c(O)c(CC=C(C)C)c3c(=O)c2c1O	/	/	/	5%	-41%	/	-6%	22µM*
CCOC(=O)c1c(-c2ccc(Cl)cc2)csc1NC(=O)CNCc1ccco1	/	/	/	5%	8%	/	-3%	-30%
N#Cc1ccccc1NC(=O)CN1CCOCC1	/	/	/	6%	29%	/	5%	4%
O=C(c1cnn(-c2nc3ccccc3s2)c1)c1ccccc1O	-19%	-0.1%	?	-1%	-2%	-55%	5%	-22%
COc1ccccc1N1CCN(C(=O)CSc2nnc(-c3ccoc3C)o2)CC1	22%	-1.2%	-9%	6%	-7%	?	-1%	?
O=C(Nc1ccc(F)cc1F)c1cccn(Cc2ccccc2)c1=O	/	/	?	17%	/	-15%[46.1 µM]	0%	-10%
CC(OC(=O)Cc1coc2cc3c(cc12)CCC3)C(=O)NC(N)=O (stereo not given)	/	/	-22%	1%	/	3%[46.1 µM]	4%	-6%
O=C(COC(=O)C1(c2ccc(F)cc2)CCCC1)N1CCc2ccccc21	5%	-2.3%	?	/	5%	?	-4%	-27%
Cc1cc(Br)ccc1OCCCCNC(C)(C)C	0%	8.2%	-23%	-1%	-9%	?	1%	-15%
CCOC(=O)c1cc(NC(=O)c2ccc(F)cc2)c(=O)n2c1oc1ccc(Cl)cc12	11%	0.5%	3%[46.1 µM]	/	/	3%[46.1 µM]	/	-1%
O=C1c2ccccc2N2C(=O)c3ccccc3C2N1Cc1ccccc1 (stereo not given)	/	/	/	9%	-8%	/	-3%	-18%
CCCSc1nc(N)c2c3c(sc2n1)CN(C)CC3	-6%	-5.2%	24%	-12%	-2%	-1%	-1%	24%
Cc1cccc2c(=O)c(C(=O)N3CCCCCC3)c[nH]c12	-2%	4.2%	2%	17%	?	-1%	8%	-11%
CN(C(=O)COC(=O)COc1ccccc1Cc1ccccc1)c1ccccc1	/	/	20%	9%	/	-2%[46.1 µM]	-3%	6%
Next section:
SMILES	Cruzain inh noDet	Cruzain inh Det	LASV entry inh	RE007 growth inh	NS1 function inh	MARV entry inh	SARS PLP yeast	StopGo reporter
Cc1ccc2c(c1)C1C[N+](C)(CC(=O)c3ccccc3)CCC1N2C(=O)c1ccccc1Cl (stereo not given)	/	/	-11%	1%	/	1%	0%	0%
Nc1c(C(=O)O)cnn1-c1ccccc1	/	/	4%	-22%	/	-1%[46.1 µM]	-7%	-5%
CCS(=O)(=O)c1nc(S(=O)(=O)c2ccc(Cl)cc2)c(NCc2ccccc2Cl)s1	-30%	-2.7%	-14%[46.1 µM]	/	/	?	/	18%
O=C1NC2(CCCCC2)CO1	/	/	/	1%	16%	/	14%	-13%
CNC(=S)NNC(=O)c1ccc(=O)n(Cc2cccc(C(F)(F)F)c2)c1	/	/	?	4%	-1%	6%[46.1 µM]	0%	-22%
COC(=O)Nc1ccc(S(=O)(=O)N2CCN(C)CC2)cc1	-7%	3.1%	14%	19%	-5%	12%	-4%	-8%
C/C(=N\Nc1ccccc1)c1c(O)n(-c2ccccc2)c(=O)[nH]c1=O	/	/	?	120%	4%	?	0%	-18%
O=C(c1cc2cc(Cl)ccc2[nH]1)N1CCN(Cc2ccc3c(c2)OCO3)CC1	/	/	/	24%	-22%	/	-8%	-4%
Cc1ccc(OCC(=O)N(C)CC(=O)N(CC(C)C)c2c(N)n(CC(C)C)c(=O)[nH]c2=O)c(C)c1	/	/	?	5%	/	11%	-5%	-21%
C=CC[N+](C)(C)CC(=O)OCc1ccccc1	17%	0.2%	-5%	7%	13%	8%	-9%	12%
CCCCOc1ccc(CSc2nc(C)[nH]c2[N+](=O)[O-])cc1[N+](=O)[O-]	/	/	?	-4%	12%	?	0%	-28%
O=C(CC(NC(=O)c1ccccc1)c1ccccc1)Nc1cccc2ccccc12 (stereo not given)	25µM*	-3.5%	-11%	-2%	10%	6%	?	-11%
CC(=O)N1c2ccc(C)cc2Sc2c1ccc1ccccc21	/	/	?	42%	/	?	/	-23%
COc1ccc(NC(C)=O)cc1S(=O)(=O)N1CCN(Cc2cccs2)CC1	/	/	-11%	9%	/	14%	3%	-3%
O=C1c2ccccc2OCOc2ccccc21	-4%	0.7%	1%	-18%	-10%	17%	3%	/
O=[N+]([O-])c1ccc2nc(-c3ccccc3[N+](=O)[O-])[nH]c2c1	/	/	-23%	-26%	/	-20%[46.1 µM]	-1%	15%
Cc1ccc(NC(=O)Cn2c(=O)n(Cc3ccco3)c(=O)c3oc4ccccc4c32)cc1C	-13%	-1.8%	13%[46.1 µM]	/	/	/	/	-23%
COc1cn(CC(=O)Nc2c(C)cc(C)cc2C)c(CN2CCCCC2)cc1=O	-5%	3.0%	2%[46.1 µM]	/	/	/	/	-2%
CCN(CC)S(=O)(=O)c1ccc(N2CCCC2)c(NC(=O)c2ccc([N+](=O)[O-])o2)c1	/	/	?	2%	/	?	-5%	?
Cc1cc(C)n(-c2nc(NCCCN(C)C)c3c4c(sc3n2)COC(C)(C)C4)n1	/	/	-25%	1%	3%	?	3%	0%
O=C(Oc1c(CN2CCOCC2)cc(Cl)c2cccnc12)c1cccs1	/	/	?	1%	/	10µM*	?	-17%
CNC(=O)NC(=O)C(C)OC(=O)c1oc2ccccc2c1CSc1ccc(Cl)cc1 (stereo not given)	-7%	-6.7%	-2%	-2%	12%	?	-17%	-21%
Cn1c(C(O)C(O)c2ccccc2)nc2ccccc21 (stereo not given)	/	/	/	-16%	-6%	/	-2%	25%
Cc1cccc(NC(=O)CS(=O)(=O)c2cn(C)c3ccccc23)c1C	-11%	0.5%	25%	-13%	-42%	24%	-14%	-7%
O=C(OCc1ccccn1)c1ccc(COc2ccc3ccccc3c2)o1	/	/	/	2%	-37%	/	-1%	5%
Continued.
SMILES	Cruzain inh noDet	Cruzain inh Det	LASV entry inh	RE007 growth inh	NS1 function inh	MARV entry inh	SARS PLP yeast	StopGo reporter
O=C(NCC1CCCO1)c1cc2c([nH]c3ccccc32)c(-c2ccc(F)cc2)n1 (stereo not given)	/	/	/	-7%	-5%	/	-9%	-30%
CCOc1ccc(C(=O)N2CCc3ccccc32)cc1OCC	/	/	?	-14%	-7%	-9%	?	4%
O=C(COc1ccc2ccccc2c1)Nc1ccc(S(=O)(=O)N2CCCCCC2)cc1	?	-5.7%	0%	-5%	4%	-21%	-2%	-15%
Cc1cc(Cl)ccc1C(=O)C1CCCN(Cc2ccon2)C1 (stereo not given)	/	/	2%[46.1 µM]	-1%	3%	?	6%	-16%
Cc1ccc(C(=O)Nc2cccc(Oc3ccccc3)c2)o1	-1%	-11%	?	-16%	-134%	-20%	-27%	21%
COc1cc(C(=O)NNC(=O)CN2C(=O)NC(C)(c3ccc(C)cc3)C2=O)cc(OC)c1OC (stereo not given)	/	/	14%	1%	/	?	1%	-4%
Cc1cccc(NC(=O)c2ccc(OC3CSC3)cc2)c1	-6%	0.6%	?	4%	3%	?	-25%	-9%
O=C(c1cnn2c(C(F)(F)F)cc(-c3ccc(F)cc3)nc12)N1CCc2ccccc2C1	/	/	?	-6%	-31%	?	1%	-8%
O=C1CCC(C(=O)N2CCSCC2)CN1CCc1cccc(F)c1 (stereo not given)	/	/	-2%	-2%	9%	-5%	13%	10%
Cc1[nH]c2ccccc2c1/C=N/n1cnnc1	-17%	-6.0%	15%	-1%	-1%	5%	0%	-14%
CCN1C(Nc2ccccc2)=NC[C@@H]1Cc1ccccc1	/	/	/	-9%	-10%	/	-1%	-6%
O=c1[nH]c(=S)n(CCC2=CCCCC2)c(O)c1/C=N/N1CCOCC1	/	/	/	2%	2%	/	0%	-10%
COc1cc2c(cc1NC(=O)c1ccco1)CCCC2	-5%	-3.6%	?	-5%	-72%	0%	-16%	/
COc1ccccc1-n1c(=O)[nH]c2c(C(N)=O)nc(CC(C)C)nc21	-3%	-3.2%	/	-11%	-3%	/	14%	-16%
O=C(CN1C(=O)NC2(CCCCC2)C1=O)NCC(=O)Nc1ccc(F)c(F)c1	/	/	13%	-8%	/	2%	2%	-7%
COc1cc(Cl)ccc1OCc1cc(C(=O)NCc2cc(C(C)C)no2)no1	/	/	0%	-14%	-22%	-29%	17%	-14%
COCCn1c(SCC(=O)N2CC(C)OC(C)C2)nc2c([nH]c3ccccc32)c1=O (stereo not given)	/	/	/	-5%	6%	/	-1%	20%
Cc1cc(NC(=O)Nc2ccccc2)n(C(C)(C)C)n1	/	/	/	14%	-1%	/	1%	-17%
Cc1cccnc1NC(=O)c1ccc2c(c1)OCO2	/	/	2%	7%	/	6%	-2%	16%

Screening data deposited in PubChem by National Center for Advancing Translational Sciences (NCATS).
